Screening data as filed in PubChem BioAssay.
Prx2 Sm inh – inhibitors of Schistosoma mansoni peroxiredoxin 2; actives 0.07% (n = 65,000); Potency, µM; AID 448; S. mansoni Prx2 activity coupled to TGR/GSH (TGR is thioredoxin glutathione reductase), NADPH fluorescence loss, qHTS; some inactives read as strong as hits; active means full or partial inhibition curve with a strong effect at the top dose; inconclusive means weaker partial or single-point curve; inactive means no accepted curve; also: series up to 57 µM; many of its hits are not listed in these tables
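Activity is read as the drop in NADPH fluorescence (365/450 nm), recorded every 30 sec for 8 min after H2O2 addition. Prx2 is coupled to TGR-driven NADPH oxidation through glutathione, in phosphate buffer pH 7.4.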
Anthrax LT inh – inhibitors of anthrax lethal toxin internalization | Cells, anthrax lethal toxin internalization, FRET ratio (460/530) | Potency, µM (top dose mostly 40 µM), without a hit: at the highest dose activity change, negative = inhibition, actives largely listed as inhibitors | actives 0.67% (n = 70,000); active = well fitted falling ratio curve with the 530 nm signal flat; inconclusive = other ratio curves, or a change in one channel alone; inactive = flat curves in the ratio and both channels; the % refers to the ratio; also: % is scaled to controls: 0 for no effect and ±100 for the full control effect; nearly all actives have a fitted effect of over 50% in size; tested in ME-180 cells; beta-lactamase reporter
* = called active by the depositor; u = inconclusive; x = no result given; & = joins results of further samples; [ ] = remark or other dose. Potency is read from the fitted curve at half-maximal effect. The list is partial; rates above refer to the full screens.

SMILES | Prx2 Sm inh | Anthrax LT inh
Cc1ccc2c(c1)N(CCC(=O)NCc1ccc3c(c1)OCO3)C(=O)CO2 | >57 | -2%
CCOC(=O)c1c(NC(=O)CSc2nnnn2CC)sc(C)c1C | >57 | 5%
COCCn1c(=O)c(C)nc2cnc(Oc3ccc(OC)cc3)nc21 | >57 | -10%
COc1ncc2nc(-c3ccc(Cl)cc3)c(=O)n(CCC#N)c2n1 | >57 | -6%
COc1ccc(C(=O)NCCc2ccc(S(N)(=O)=O)cc2)cc1OC | x | -16%
CC(=O)Nc1ccc(-c2cc(NC(C)=O)n(-c3ccccc3)n2)cc1 | >57 | -1%
C=CCn1c(SCC(=O)N2CCOCC2)nc(O)c(Cc2ccccc2)c1=O | x | -6%
Cc1sc2nc(CSc3nnc(Cc4cccs4)n3C3CCCCC3)[nH]c(=O)c2c1C | >57 | 6%
CC(=O)N1CCC(N(CCCOC(C)C)C(=O)Nc2ccc(Cl)cc2)CC1 | >57 | -16%
COc1ccccc1CNc1ncncc1-c1cccnc1 | >57 | u
COC(=O)CSc1nnc(CCc2nc3ccccc3[nH]2)n1C | >57 | -9%
Cc1cc(C)n(C(=O)c2ccc(C)c(S(=O)(=O)N3CCCC3)c2)n1 | >57 | -6%
O=C(COC(=O)c1ccc2c(c1)OCCO2)NCc1ccccc1 | >57 | -8%
CN(C)CCN1C(=O)c2oc3ccccc3c(=O)c2C1c1ccc(F)cc1 (configuration not stated) | >57 | 4%
Cc1nc2cnc(OCc3ccccc3)nc2n(C)c1=O | >57 | 1%
O=C1N/C(=N/c2ccccn2)SC1Cc1ccccc1 (configuration not stated) | >57 | -3%
COc1ccccc1CNc1ncnc2c1nnn2Cc1ccccc1 | >57 | -5%
CCSc1nnc(NC(=O)c2c(-c3ccccc3Cl)noc2C)s1 | >57 | 4%
CS(=O)(=O)Nc1cccc(-c2nc(Nc3ccccc3)c3ccccc3n2)c1 | >57 | u
Cc1cc(S(=O)(=O)Nc2cccc(O)c2)c(C)s1 | >57 | -1%
CC1CCC(NC(=O)c2ccc(N3CCCC3=O)cc2)CC1 (configuration not stated) | >57 | x
CCC(=O)N1CCNC(=O)C1CC(=O)Nc1ccc(C)c(Cl)c1 (configuration not stated) | >57 | -2%
COc1cc(OC)cc(-c2nnc(SCC(=O)N3CCOCC3)o2)c1 | >57 | -3%
CNc1ncncc1-c1c(C)noc1C | >57 | -8%
Cc1nnc(SCCOC(N)=O)n1C | >57 | 0%

Grouped by structure, the compounds so far containing two or more sulfur atoms
SMILES | Prx2 Sm inh | Anthrax LT inh
CCOC(=O)c1c(NC(=O)CSc2nnnn2CC)sc(C)c1C | >57 | 5%
Cc1sc2nc(CSc3nnc(Cc4cccs4)n3C3CCCCC3)[nH]c(=O)c2c1C | >57 | 6%
CCSc1nnc(NC(=O)c2c(-c3ccccc3Cl)noc2C)s1 | >57 | 4%
Cc1cc(S(=O)(=O)Nc2cccc(O)c2)c(C)s1 | >57 | -1%

Continuation:
SMILES | Prx2 Sm inh | Anthrax LT inh
Cc1ccc(S(=O)(=O)NCCC(=O)NCc2ccccc2)cc1 | >57 | u
COC(=O)[C@@]1(Cc2ccccc2)C=C[C@@H](C)N1C(=O)c1ccccc1 | x | -11%
O=C(NCCCN1CCOCC1)c1ccc(Br)cc1 | x | -10%
COC(=O)c1sc2nc(-c3ccccc3)nc(N3CCN(C)CC3)c2c1C | >57 | 1%
Cc1cc(C)nc(-n2nc(C)c(Sc3ccc(F)cc3)c2N)n1 | >57 | 2%
Cc1ccccc1-n1c(SCC(=O)N2CCOCC2)nc(O)cc1=O | >57 | 2%
Cc1cc(C(F)(F)F)nc(NCc2ccc(F)cc2)n1 | >57 | u
CCn1nc(C(=O)O)c(=O)c2cc3c(cc21)OCO3 | >57&>57&>57 | -7%
Cc1nc2cc(-c3cccc(F)c3)nn2c(C)c1CCC(=O)N1CCC2(CC1)OCCO2 | >57 | 4%
O=S(=O)(Nc1ccc2c(c1)nc1n2CCN(Cc2ccccc2)C1)c1ccccc1 | >57 | -12%
CCOC(=O)N1CCN(C(=O)CSc2nnc(-c3ccccc3OC)o2)CC1 | >57 | 15%
CCn1c(SCC(=O)c2[nH]c(C)c(C(C)=O)c2C)nnc1-c1cccs1 | >57 | -4%
Cc1nc(NCCNC(=O)c2ccco2)c2c(C)c(C)sc2n1 | >57 | 4%
CC(=O)c1ccc(OCC(O)CN2CCC(C)CC2)cc1 (configuration not stated) | >57 | -8%
O=c1ccc2[nH]cc(C3=CCNCC3)c2[nH]1 | >57 | -7%
CCc1ccc(N2CC(C(=O)OCC(=O)NC3CCS(=O)(=O)C3)CC2=O)cc1 (configuration not stated) | >57 | -3%
CC1CCN(CC(=O)N2c3ccccc3Sc3cc4ccccc4cc32)CC1 | >57 | -6%[8 µM]
CCOC(=O)c1cccc(NC(=O)CSc2nnc(C3CCCCC3)n2C)c1 | >57 | 0%
CCNc1nc2c(c(=O)[nH]c(=O)n2C)n1Cc1ccc(F)cc1 | >57 | 12%
COc1ccc(S(=O)(=O)N2CCCN(CC(=O)Nc3ccc4c(c3)OCO4)CC2)cc1 | >57 | -6%
NC1=C(c2ccc(F)cc2)C(=O)CS1 | >57 | u
CCN(CC)S(=O)(=O)c1ccc(O)c(C(=O)OCC(=O)N(C)Cc2ccccc2)c1 | >57 | -18%
COC(=O)c1ccc(C(/C=C/[C@@H](C)C(=O)NCCN2CCCC2)NC(=O)OCc2ccccc2)cc1 (some centres not stated) | x | -4%
Cc1ccc(-c2ccc(=O)n(CCC(=O)NCCN3CCCCC3C)n2)cc1 (configuration not stated) | >57 | -9%
O=C(CCN1CCCCC1)N1CCc2c([nH]c3ccccc23)[C@H]1c1cccnc1 | >57 | -8%[8 µM]
Remaining list, next part.
SMILES | Prx2 Sm inh | Anthrax LT inh
CCOc1ccc(Nc2nc(CC(=O)OC)cc(=O)[nH]2)cc1 | >57 | 9%
COc1ccc(-c2nnc(SCC(N)=O)n2N)cc1 | >57 | -17%
Cc1ccc2c(c1)NC(=O)C(CC(=O)NCCCN1CCc3ccccc3C1)O2 (configuration not stated) | >57 | -12%
Brc1ccc(Oc2nsnc2N2CCOCC2)cc1 | >57 | -11%
CCOc1ccc(NC(=O)C2CCCN(S(=O)(=O)c3c(C)n[nH]c3C)C2)cc1 (configuration not stated) | >57 | 4%
CCOC(=O)N1CCC(NC(=O)CNS(=O)(=O)c2ccc(Br)s2)CC1 | >57 | -1%
Clc1ccccc1Cn1nnc2c(NCCN3CCOCC3)ncnc21 | >57 | -20%
Nc1nc2n(n1)C(c1ccco1)CC(c1ccc(Cl)c(Cl)c1)N2 (configuration not stated) | >57 | u
Cc1ccc2c(c1)C1C=CCC1C(C(=O)O)N2 (configuration not stated) | >57 | 11%
Cn1nc(-c2ccc(Cl)cc2)c2cc(C(=O)NCCCN3CCCC3)sc21 | >57 | 2µM*
c1cncc(-c2nc(Oc3ccc(-c4nnco4)cc3)c3c4c(sc3n2)CCCC4)c1 | >57 | 5%
O=C(NCCC1=CCCCC1)c1ccc(CN2CCOCC2)cc1 | >57 | -17%
CS(=O)(=O)N(CC(=O)N1CCCC1)c1ccc(OCc2ccccc2)cc1 | >57 | -2%
Cc1ccc(C)c(C(=O)CC2(O)C(=O)Nc3ccccc32)c1 (configuration not stated) | >57 | -2%
COc1ccc(S(=O)(=O)N(C)c2c(C)n(C)n(-c3ccccc3)c2=O)cc1OC | x | -2%
CCCc1cc(=O)[nH]c(SCc2cc(C(=O)OC)c(C)o2)n1 | >57 | 12%
N#Cc1cn(CC(=O)N2CCCC2)c2ccccc12 | >57 | 14%
COc1ccc(C(CNC(=O)c2cc(C)oc2C)N2CCOCC2)cc1 (configuration not stated) | >57 | -4%
CCOc1ccc(-c2nnc(-c3cccnc3)o2)cc1OCC | >57 | -4%
O=C1NCCCC2c3c(cc(Br)c(O)c3Br)OC12N1CCOCC1 (configuration not stated) | >57 | u
O=C(NC1CCCCCC1)c1c(O)c2ccccc2[nH]c1=O | >57 | -11%
CCCn1c2c(c(O)c(C(=O)Nc3ccc(OCC)cc3)c1=O)CCCC2 | >57 | -4%
CC(C)(C)n1ncc2c(=O)n(CC(=O)Nc3ccccc3)cnc21 | >57 | -4%
COc1ccc(C(=O)N(CN2CCCC2=O)c2ccc(C)cc2)cc1 | >57 | 19%
CN1CSC2=C(C#N)C(c3cccc(OCc4ccccc4)c3)CC(=O)N2C1 (configuration not stated) | >57 | u

Profiles as entered above. Screens in order: Prx2 Sm inh, Anthrax LT inh
Shown for CCOc1ccc(-c2nnc(-c3cccnc3)o2)cc1OCC → >57, -4%
Shown for CCN(CC)S(=O)(=O)c1ccc(O)c(C(=O)OCC(=O)N(C)Cc2ccccc2)c1 → >57, -18%
Shown for CCCn1c2c(c(O)c(C(=O)Nc3ccc(OCC)cc3)c1=O)CCCC2 → >57, -4%
Shown for COc1ccc(-c2nnc(SCC(N)=O)n2N)cc1 → >57, -17%

The listing continues:
SMILES | Prx2 Sm inh | Anthrax LT inh
Cc1ccc(Cn2ccc(NC(=O)c3cc(-c4ccc(Br)cc4)on3)n2)cc1 | >57 | 4%
CC(C)CNS(=O)(=O)c1ccc(CCC(=O)Nc2ccc3c(c2)OCO3)cc1 | >57 | 0%
COc1ccc(C)cc1S(=O)(=O)N(C)CC(=O)N1CCCCCC1 | >57 | -10%
CC1=C(/C=C\C(=O)O)C(C)(C)CCC1 | >57 | -5%[8 µM]
CCCCNC(=O)NS(=O)(=O)c1ccc(C(=O)OC(C)C)o1 | >57 | -16%
CCN1CCN(CC(=O)Nc2cc(F)ccc2C)CC1 | >57 | -13%
Cn1c(/C=N/n2cnnc2)nc2ccccc21 | x | -3%
O=C1C(=O)N(CCN2CCOCC2)C(c2ccncc2)/C1=C(/O)c1ccc2c(c1)OCO2 (configuration not stated) | >57 | 4%
O=c1oc2ccc(Br)cc2cc1-c1nc2ccccc2o1 | >57 | -6%
N#Cc1ccccc1Sc1ccccc1C(=O)OCC(=O)N1CCN(C(=O)c2ccco2)CC1 | >57 | u
CC(=O)c1cc(-c2ccccc2)n(CC(=O)N2CCN(C3CCCC3)CC2)c1C | >57 | -3%
CC(C)Oc1cccc(C(=O)Nc2ccc(NC(=O)c3ccco3)cc2)c1 | >57 | -15%
O=C1OCCC1Sc1nnc(-c2ccc(Br)cc2)o1 (configuration not stated) | >57 | 6%
COc1ccc2c(c1OC)CN1CCc3cc4c(cc3[C@H]1C2)OCO4 | >57 | u
CC(C)C(=O)Nc1c(C(=O)c2ccc(F)cc2)oc2ccccc12 | >57 | u
Cc1onc(-c2ccccc2)c1C(=O)Nc1ccc(-c2nnc3n2CCCCC3)cc1 | >57 | 1%
Cc1ccc(C2CC(c3ccc(F)cc3)Nc3nc(N)nn32)cc1 (configuration not stated) | >57 | 3%
O=C(O)CCC(=O)N1CCc2cc(S(=O)(=O)NCc3cccs3)ccc21 | >57 | -9%
CCOc1ccc(C(C)=O)cc1COc1ccc(-n2cnnn2)cc1 | >57 | 4%
COc1ccccc1N1CCN(C(c2cccs2)C(C)NC(=O)c2cccs2)CC1 (configuration not stated) | >57 | -8%
COc1ccc(N(CC(=O)NCc2cccs2)S(=O)(=O)c2c(C)nn(C)c2C)cc1 | >57 | -4%
O=C(Nc1cccnc1)c1ccc2snnc2c1 | >57 | 4%
C=CCn1c(SCCC(=O)O)nc2c1c(=O)n(C)c(=O)n2C | >57 | -3%
CCOC(=O)c1c(-c2cccs2)csc1NC(=O)CN1CCOCC1 | >57 | u
CN1C(=O)N2CN(C3CCCCC3)CN3C(=O)N(C)C1C23 (configuration not stated) | x | -11%
Next entries.
SMILES | Prx2 Sm inh | Anthrax LT inh
Cn1c(Cn2c(=O)sc3ccccc32)nnc1SCC(=O)N1CCOCC1 | >57 | -2%
CN(C)Cc1ccccc1-c1nc(NC2CC2)c2ccccc2n1 | >57 | -8%
Cn1cccc1C(=O)c1ccc(Cl)cc1Cl | >57 | -10%
O=C(Nc1ccccc1C(=O)N1CCCC1)c1cccc(S(=O)(=O)N2CCCCC2)c1 | >11 | 10%
O=S(=O)(Cc1ccccc1)N1CCN(C2Cc3ccccc3C2)CC1 | >57 | -6%
COc1cccc(NC(=O)C2CCCN2C(=O)Nc2ccccc2F)c1 (configuration not stated) | >57 | -5%
CC(=O)OC[C@@H]1O[C@@H](O/N=C2/C[C@@H](O)[C@@H](O)[C@@H]3[C@@H]4C(=O)N(Cc5ccccc5)C(=O)[C@H]4CC[C@@H]23)[C@H](OC(C)=O)[C@H](OC(C)=O)[C@@H]1OC(C)=O | x | 1%[8 µM]
CC(=O)C1C(c2cn(-c3ccccc3)nc2-c2cccs2)NC(=O)NC1(O)C(F)(F)F (configuration not stated) | >57 | 3%
CC1(C)S[C@@H]2[C@H](NC(=O)[C@@H](NC(=O)N3CCNC3=O)c3ccccc3)C(=O)N2[C@H]1C(=O)O | >57 | -1%[3.58 µM]
O=C(Nc1ccc(Cl)c(Cl)c1)OCc1cccnc1 | >57 | u
BrC(c1cccc2ccccc12)c1cccc2ccccc12 | >57 | -2%[8 µM]
COc1ccccc1CNc1cc(-c2ccccc2C(F)(F)F)ncn1 | >57 | u
CCOCCCNC(=O)c1cc2c(=O)n3cccc(C)c3nc2n1C | >57 | -17%
Cc1ccc2cc3cc(C(=O)NCCCN4CCc5ccccc5C4)oc3nc2c1 | >57 | u

Random excerpt: two records from the list.
SMILES | Prx2 Sm inh | Anthrax LT inh
CN(C)Cc1ccccc1-c1nc(NC2CC2)c2ccccc2n1 | >57 | -8%
O=C(Nc1ccccc1C(=O)N1CCCC1)c1cccc(S(=O)(=O)N2CCCCC2)c1 | >11 | 10%
